Sfp PPTase inh – blocks B. subtilis Sfp PPTase activity; Potency, µM, for inactives: max response, negative = inhibition, most hits filed as inhibitors; Biochemical Sfp PPTase activity, qHTS; Q9F4F7; 3.5% of 310,000 active; active means well fitted inhibition curve with a large enough effect; inconclusive means small, poorly fitted or top-dose-only effect, or another doubt; inactive means no such curve, though single readings can be large or run the other way;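 further: the enzyme is Sfp with the accession as filed and its product quenches rhodamine fluorescence; potency means the concentration at half of the fitted maximal effect; 0% = enzyme reaction without inhibitor and -100% = no enzyme wells; top concentration of the series not given in the record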
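With Hepes-Na pH 7.6 buffer containing 10 mM MgCl2, Sfp (15 nM) modified BHQ-2-YbbR (12.5 uM) using rhodamine-CoA (5 uM). Two reads 30 minutes apart at 525/598 nm yielded each well's rate.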
TRPV1 potentiator – enhances activation of the human vanilloid receptor TRPV1 | TRPV1-expressing cells, Fluo-8 calcium influx, capsaicin EC20 potentiation; host cell line not named in the record; control for the full effect not named in the record | potentiation, % at 8.33 µM | 0.02% of 320,000 active; active means potentiation above 80%; inconclusive means 30% to 80%; inactive means below 30%; further: 0% is about no effect
Target sequence (Q8NER1 whole entry, looked up): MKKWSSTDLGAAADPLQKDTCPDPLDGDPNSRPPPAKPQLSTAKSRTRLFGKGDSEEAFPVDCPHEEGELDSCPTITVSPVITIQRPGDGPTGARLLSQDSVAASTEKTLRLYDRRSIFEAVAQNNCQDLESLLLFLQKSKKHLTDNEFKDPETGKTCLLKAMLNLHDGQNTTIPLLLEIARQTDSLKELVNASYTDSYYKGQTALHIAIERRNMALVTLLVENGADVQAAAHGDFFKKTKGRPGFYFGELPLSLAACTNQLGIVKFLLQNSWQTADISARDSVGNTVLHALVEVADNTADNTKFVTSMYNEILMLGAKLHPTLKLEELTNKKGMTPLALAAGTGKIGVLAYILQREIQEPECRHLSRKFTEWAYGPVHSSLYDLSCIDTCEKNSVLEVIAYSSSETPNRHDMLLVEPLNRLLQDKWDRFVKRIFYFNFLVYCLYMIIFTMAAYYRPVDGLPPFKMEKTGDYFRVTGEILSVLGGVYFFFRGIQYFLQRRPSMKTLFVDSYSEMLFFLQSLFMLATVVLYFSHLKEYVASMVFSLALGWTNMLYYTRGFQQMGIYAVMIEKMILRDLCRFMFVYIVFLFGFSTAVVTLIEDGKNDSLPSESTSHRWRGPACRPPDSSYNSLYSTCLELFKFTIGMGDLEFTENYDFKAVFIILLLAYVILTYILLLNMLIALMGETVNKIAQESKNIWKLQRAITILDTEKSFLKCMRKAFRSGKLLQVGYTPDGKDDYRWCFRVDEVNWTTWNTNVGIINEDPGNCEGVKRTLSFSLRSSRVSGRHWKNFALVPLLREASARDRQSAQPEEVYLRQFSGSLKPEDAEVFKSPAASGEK
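Fluo-8 calcium influx in TRPV1-expressing cells, kinetic read (ex 480/em 520 nm). Compound added and read 3 min for agonist activity, followed by capsaicin at EC20 final and 2 min further read for enhancement.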
Six1-Eya2 inh – inhibitors of human Six1/Eya2 interaction; activity change, % (no concentration beside the values); Q15475+O00167; AlphaScreen GST-Six1/His-Eya2 binding, biochemical; stronger effect = lower value; control for the full effect not named in the record; 0.56% of 360,000 active; in the data active = activity change below about -65%; inconclusive = about -30% to -65%; inactive = above about -30%; further: on the % scale 0 is the no-effect control and ±100 the full control effect; compound concentration not given in the record
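AlphaScreen luminescence read after one hour at 37 °C in darkness. Pin-transferred compounds met GST-Six1 and His-Eya2 protein (5X stock 250 nM/500 nM) plus glutathione donor and Ni-chelate acceptor beads (5X, 50 ug/mL).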
PINK1 expr mod – modulators of PINK1 expression; PINK1 immunofluorescence, high-content cytometry, 24 h; Potency, µM (top dose mostly 76.6 µM), for inactives: at the top dose activation (PINK1 increase), most hits filed as activators; 0.2% of 410,000 active; active = well fitted activation curve with a large enough effect; inconclusive = small, poorly fitted or top-dose-only effect; inactive = flat fitted curve, though single readings scatter; cell line not stated here;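 further: potency means the concentration at half of the fitted maximal effect; % of control where 0% means no effect; nearly all actives have a fitted effect of over 65% in size; a mitochondrial uncoupler was the plate control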
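Fluorescence from anti-PINK1 antibody, together with nuclear and cell stains, was scanned on a laser-scanning cytometer. Before staining, stable-line cells were incubated 24 hours with compounds at 5 concentrations; primary antibody 12 h at 10 degrees C.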
D2 potentiator – potentiates the human D2 dopamine receptor allosterically; P14416; DiscoveRx D2 beta-arrestin cells, luminescence, 90 min; 100% = 57 uM dopamine signal; potentiation, % (concentration not given with the values); 0.23% of 360,000 active; AID 624464; active = potentiation of 50% or more; inconclusive = 30% to 50%; inactive = 30% or less;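 further: compound concentration not given in the record; tested on top of an EC20 dose of dopamine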
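D2 cells co-treated with compound plus 50 nM dopamine (EC20) for 90 min at 37 deg C to detect potentiation. Beta-arrestin recruitment was read as enzyme-fragment luminescence after 1 h at ambient temperature. Full response was set by 57 uM dopamine.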
CtBP-E1A inh – CtBP/E1A binding inhibition | AID 651724 | 0.49% of 340,000 active | AlphaScreen GST-E1A/His-CtBP binding, 1536-well; stronger effect = lower value; control for the full effect not named in the record | activity change, % (no concentration beside the values); in the data active means activity change below about -65%; inconclusive means about -30% to -65%; inactive means above about -30%; further: on the % scale 0 is the no-effect control and ±100 the full control effect; compound concentration not given in the record
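Protein mix (5X: 125 nM each GST-E1A, His-CtBP) was incubated with pinned compound 2 h at 37 deg C in dark, in 50 mM Tris pH 8.0 buffer with 300 mM NaCl. Glutathione donor and nickel acceptor beads followed; AlphaScreen signal read after 1 h.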
D2 ag – agonists of human D2 dopamine receptor (beta-arrestin). P14416. DiscoveRx PathHunter D2 beta-arrestin, luminescence, 90 min; 100% = 57 uM dopamine signal. activation, % (no concentration beside the values). 0.084% of 360,000 active. AID 624465; in the data active = activation above about 40%; inconclusive = about 15% to 40%; inactive = below about 15%; further: compound concentration not given in the record; the text of the record calls up to 30% inactive
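DiscoveRx PathHunter D2 beta-arrestin cells (2,100/well) attached overnight, then compound-stimulated 90 min at 37 C in HBSS/10 mM HEPES/0.1% Tween-20 buffer; beta-galactosidase complementation read by luminescence after 1 h at ambient temperature. Dopamine 57 uM final (EC100) as control.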
Active calls of the source: *; ? = inconclusive; nt = no result given; & = joins results of further samples; [ ] = remark or other dose.

SMILES	Sfp PPTase inh	TRPV1 potentiator	Six1-Eya2 inh	PINK1 expr mod	D2 potentiator	CtBP-E1A inh	D2 ag
Cc1cc(C)cc(C(=O)NC(=S)Nc2ccc3[nH]c(=O)[nH]c3c2)c1	-19.2%	4.4	10.0	0.1%	-5.7	-17.6	-7.5
O=C(NCCc1ccccc1)C(=O)NCC1CCCO1 (stereo not given)	3.3%	4.0	-1.7	nt	-24.6	9.1	0.9
Cc1cccc(C)c1NC(=O)COC(=O)CCc1c[nH]c2ccccc12	nt	-9.5	-0.9	-1.1%	-5.8	-6.4	4.1
CCS(=O)(=O)N1CCN(Cc2nc3ccccc3c(=O)[nH]2)CC1	10.2%	0.9	6.3	-0.8%	6.4	-6.6	1.1
CCOc1ccc(-c2c(C(=O)N/N=C/c3cccc(Br)c3)nnn2-c2nonc2N)cc1	13.8%	-16.2	6.7	3.2%	-12.4	nt	-11.1
Cc1c(CC(=O)O)c(=O)oc2c(C)c(OCc3ccccc3Br)ccc12	2.2%	25.0	0.9	0.7%	-1.8	0.4	2.3
CC1=CSC2=NC(=O)/C(=C\c3cccn3-c3ccccc3)C(=N)N12	10µM*	-0.8	-19.5	6.9%	-6.5	-11.3	-2.8
CCC(=O)NC1CCN(C(=S)NC)CC1	12.5%	19.4	1.4	0.2%	4.8	8.5	-4.4

In a second layout: entries from further up.
Results follow in this order: Sfp PPTase inh	TRPV1 potentiator	Six1-Eya2 inh	PINK1 expr mod	D2 potentiator	CtBP-E1A inh	D2 ag
> Cc1cccc(C)c1NC(=O)COC(=O)CCc1c[nH]c2ccccc12
→ nt	-9.5	-0.9	-1.1%	-5.8	-6.4	4.1
> CCS(=O)(=O)N1CCN(Cc2nc3ccccc3c(=O)[nH]2)CC1
→ 10.2%	0.9	6.3	-0.8%	6.4	-6.6	1.1

Following part.
SMILES	Sfp PPTase inh	TRPV1 potentiator	Six1-Eya2 inh	PINK1 expr mod	D2 potentiator	CtBP-E1A inh	D2 ag
CCN(CC(=O)NCc1cccs1)C(=O)c1cc(S(=O)(=O)NCc2ccccc2)ccc1C	nt	5.6	6.8	-0.8%	-11.9	-4.5	-0.6
CCn1c(C)cc2c(c1=O)C(c1ccccc1)C(C(=O)OC)=C(N)O2 (stereo not given)	19.6%	4.6	8.3	-3.2%[38.3 µM]	2.3	5.6	3.0
CC(=O)Nc1ccc(NC(=O)c2cc(-c3ccc(F)cc3C)n[nH]2)cc1	nt	nt	3.7	0.1%	-14.7	2.1	-3.2
COC(=O)c1[nH]c2cc(OC)ccc2c1NC(=O)c1ccc2c(c1)OCO2	-13.6%	-7.6	-2.7	8.0%	-2.5	-2.6	-2.1
CN(CCNC(=O)c1ccc(CS(=O)(=O)c2ccc(Br)cc2)o1)CCc1ccccc1	15.3%	-7.7	-9.5	0.0%	-13.3	nt	-2.4
O=C(NC1CCCCC1)c1cccc(NC(=O)c2ccccc2Cl)c1	nt	nt	0.7	1.4%	-14.8	-1.3	-1.8
COCc1cc(C)nc2sc(C(=O)OC(C)C)c(N)c12	?	-2.4	41.8	6.2%	-2.8	28.8	0.0
NS(=O)(=O)c1cccc(NC(=O)CSc2nnc(NC3CC3)s2)c1	nt	nt	5.2	-0.2%	-10.3	0.5	-0.1

Single entries from above:
`O=C(NC1CCCCC1)c1cccc(NC(=O)c2ccccc2Cl)c1` in Six1-Eya2 inh: 0.7
`CN(CCNC(=O)c1ccc(CS(=O)(=O)c2ccc(Br)cc2)o1)CCc1ccccc1` in D2 ag: -2.4

(next part)
SMILES	Sfp PPTase inh	TRPV1 potentiator	Six1-Eya2 inh	PINK1 expr mod	D2 potentiator	CtBP-E1A inh	D2 ag
COc1cc(C(=C(CC(=O)O)C(=O)O)c2ccc3c(c2)OCO3)cc(OC)c1OC	nt	nt	7.4	-1.2%	-17.0	-24.1	-0.6
CC(=O)C1=C(C)NC(SCC(N)=O)=C(C#N)C1c1sccc1C (stereo not given)	-1.8%	-4.6	2.2	nt	4.8	7.1	14.0
CCOC(=O)N1CCC(Nc2c(N3CCN(c4cccc(C(F)(F)F)c4)CC3)c(=O)c2=O)CC1	5.8%	4.3	-4.7	17.5%[38.3 µM]	-7.6	-4.5	-1.9
Cc1ccc(C)n1-c1sccc1C(=O)O	50.1µM*	1.8	-67.9*	0.3%	-14.8	-6.1	-3.1
Cc1cnc(C(=O)OCC(=O)Nc2ncc(Cl)cc2Cl)cn1	nt	-3.1	-3.5	0.9%	-1.2	-1.3	-0.8
O=C1CSC(c2cccc(F)c2)N1c1c(F)cccc1F (stereo not given)	15.8%	5.0	-1.9	3.5%	-9.0	-4.1	4.9
C/C(=N/N=C1/NC(=O)CC(C(=O)Nc2ccccc2)S1)c1cccs1 (stereo not given)	21.1%	-6.5	-2.7	1.3%	-2.0	4.7	-0.7
COC(=O)CN1C(=O)COc2ccc(S(=O)(=O)N3CCCCCC3)cc21	9.7%	1.5	-7.1	1.7%	4.2	nt	-4.7
O=C(Nc1nnc(C2CC2)s1)C1CCCCC1	nt	-5.0	3.9	5.0%	-0.6	nt	4.3
COc1ccccc1N1CCN(Cc2cc3c(cc2Br)OCCO3)CC1	-4.3%	-9.4	?	2.4%	-17.6	-0.8	-18.1
Cn1c(-c2c(N)n(CCc3ccccc3)c3nc4ccccc4nc23)nc2ccccc21	-9.3%	0.0	31.0	4.6%[38.3 µM]	-13.6	43.3	-0.8
COc1cc(/C=C2\CCCc3c2nc2ccccc2c3C(=O)O)cc([N+](=O)[O-])c1O	11.6%	7.7	?	1.3%	-21.5	?	-9.2
Cc1c(NC(=O)CSc2ncccn2)c(=O)n(-c2ccccc2)n1C	10.1%	0.5	11.2	-0.9%	4.7	-4.2	0.6
OC(c1ccc(Cl)cc1)c1ncc(-c2cccc(F)c2)[nH]1 (stereo not given)	nt	nt	-7.1	-0.2%	-10.7	0.7	-1.4
Cc1cc(F)cc(-c2cc(C(=O)NCc3ccc(C(F)(F)F)cc3)[nH]n2)c1	nt	nt	-3.3	8.5%	-1.1	1.2	-3.3
O=C(/C=C/c1cccs1)Nc1sc2c(c1C(=O)O)CCCC2	25.5%	7.4	-10.4	0.6%	-27.6	-14.5	-6.9
CSc1ccccc1C(=O)N1CCN(S(=O)(=O)c2sc(C(=O)O)c(C)c2C(=O)O)CC1	nt	4.7	-2.4	1.7%	-3.4	-0.4	-2.9
NCCCN1CCOCC1	17.5%	-3.4	0.4	-4.1%	-7.0	3.8	-1.0
Cc1cc(NC(=O)c2oc3ccccc3c2C)ccc1-n1cnnn1	-18.9%	11.5	-0.8	nt	9.0	11.2	1.0
COCc1nn2c(N)c(C#N)cnc2c1-c1ccccc1	20.0%	9.3	-19.4	-0.2%	-39.8	-13.3	-1.5
O=C(CSc1ccc(Cl)cc1)c1ccco1	44.7µM*	9.1	-23.9	-1.7%[38.3 µM]	1.1	-0.4	-1.4
Cc1ccc(C(=O)Nc2ccccc2-c2ccccc2)cc1S(=O)(=O)Nc1cccc(C)c1C	1.9%	2.2	-7.4	-5.5%[38.3 µM]	-1.1	0.0	-0.4
O=C(CN1C(=O)CSc2ccc(S(=O)(=O)N3CCOCC3)cc21)NCc1ccc(F)cc1	21.2%	2.4	3.2	0.3%	-5.3	3.8	6.7
Cc1ccc(NC(=O)CSc2nnnn2C2CCCC2)cc1S(=O)(=O)N1CCOCC1	nt	18.8	3.1	5.5%	0.7	1.0	0.3
COc1ccc(Cl)cc1NC(=O)CN(C)S(=O)(=O)c1cccs1	21.9%	2.0	-1.7	-1.3%	-4.6	3.9	-1.1
CCOC(=O)c1c[nH]c2c3c(ccc2c1=O)CCCC3	4.4%	-0.4	-10.5	2.6%[38.3 µM]	-4.8	-1.1	-2.7
COc1ccccc1CC(=O)Nc1cccc2c1CCCC2	6.9%	-3.1	18.4	9.7%	-12.8	-1.9	-2.2
O=C(CCNC(=O)c1ccccc1Cl)Nc1ccc2c(c1)OCO2	-9.0%	-3.2	-2.1	-1.5%	-4.8	-0.2	-1.2
C/C(N)=C(/C#N)C(=O)CSc1nnnn1-c1ccc(C)cc1C	-4.9%	-16.1	-0.3	0.0%[38.3 µM]	-7.8	6.2	3.8
C=CC[C@@H](CC(=O)N(CCO)Cc1ccccc1)C(=O)N[C@H](COC(=O)[C@H](CC=C)CC(=O)OC(C)(C)C)Cc1c[nH]c2ccccc12	nt	nt	-16.1	0.4%	nt	-14.9	-0.7
Cc1cccc(CS(=O)(=O)Cc2ccc(C(=O)NCCc3ccccc3)o2)c1	14.2%	-9.4	4.2	-0.5%&-1.0%	-9.4	3.6	0.3
COc1cc(NS(=O)(=O)c2ccc(NC(=S)NC(=O)c3ccc(Br)cc3)cc2)ncn1	1.7%	1.0	0.7	0.1%	-3.2	nt	-1.3
CC(=O)Nc1ccc(S(=O)(=O)N(C)CC(=O)OCC(=O)N2CC(C)OC(C)C2)cc1 (stereo not given)	nt	5.8	3.9	-1.7%	-8.4	-9.1	-2.4
COc1ccc(C(=O)Nc2ccc(Cn3ccnc3)cc2)cc1OC	8.2%	-2.2	-0.9	-0.2%	-1.5	4.2	7.2
COc1ccc(CNC(=O)c2cc(=O)c3cc(C)c(C)cc3o2)cc1	10.3%	-2.8	6.6	9.6%	-16.0	nt	-2.1
COc1ccc(-c2nc(CS(=O)(=O)CC(=O)NC3CCC(C)CC3)c(C)o2)cc1 (stereo not given)	2.0%	-1.4	-1.5	3.0%	-13.9	-4.5	-1.6
COC(=O)c1ccccc1NC(=O)CN1CCN(Cc2ccccc2)CC1	-1.5%	-20.1	-7.7	3.1%	-22.6	nt	-2.1
CC(C)(C)c1ccc(NC(=O)CCNC(=O)c2ccco2)cc1	18.4%	-3.8	10.7	-1.6%	-1.8	-14.9	-2.4
CCOc1ccccc1N(C(=O)Nc1ccc(Cl)cc1)C1=NCCS1	-4.5%	19.2	8.8	1.5%	-8.8	1.9	-0.6
Nc1ncc([N+](=O)[O-])c(Oc2ccccc2F)n1	9.1%	-4.8	1.5	-0.2%	0.3	3.5	-8.6

Screening data: PubChem BioAssay, National Center for Advancing Translational Sciences (NCATS)
